Screening results (PubChem BioAssay)
GALR2 ag: GALR2 receptor agonists, primary screen, cell-based. Galanin receptor type 2 (Homo sapiens), O43603. activation, %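 (tested at 5 µM)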. AID 803, 2007. GALR2-expressing cells, agonist activation read-out. hit rate 0.48% among 140,000;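 active means above mean plus 3 SD of all compounds, about 5% in these data, not always enough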;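 further: 0% = vehicle buffer wells and 100% = reference agonist at full effect; tested in CHO reporter cells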
Target sequence (O43603 whole entry, looked up): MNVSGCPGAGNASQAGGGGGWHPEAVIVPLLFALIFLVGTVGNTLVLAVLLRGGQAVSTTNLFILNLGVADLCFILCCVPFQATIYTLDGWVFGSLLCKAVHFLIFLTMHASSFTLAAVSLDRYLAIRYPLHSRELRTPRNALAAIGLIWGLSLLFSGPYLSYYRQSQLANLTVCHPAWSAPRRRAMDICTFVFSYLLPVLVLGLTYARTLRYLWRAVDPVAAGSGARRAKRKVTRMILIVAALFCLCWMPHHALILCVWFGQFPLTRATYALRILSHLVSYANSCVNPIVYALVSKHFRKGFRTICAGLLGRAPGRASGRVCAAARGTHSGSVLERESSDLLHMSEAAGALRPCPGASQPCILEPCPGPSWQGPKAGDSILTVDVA
HSV augment: enhancers of HSV replication in host cells, fold increase, host cell viability; HSV replication augmentation in cells; maximum fold increase; hit rate 0.005% among 220,000; AID 1956, 2009;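 active means peak rise of 1.5-fold or more in the series; tested in PC3 cells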;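 further: first round at 10 µM; read as green reporter fluorescence; hits show the peak of a series up to 25 µM; 1 = signal of infected wells without compound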
PKD1 kinase inh: inhibitors of human PKD1 kinase, biochemical, fluorescence polarization; Serine/threonine-protein kinase D1 (Homo sapiens), Q15139; PKD1 kinase fluorescence polarization assay; inhibition, %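 (about 10 µM by stock and volumes)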; hit rate 0.056% among 200,000;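 active means inhibition of 50% or more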;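 further: controls were vehicle for no effect and a reference inhibitor for full effect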
Insulin prom inh: inhibitors of insulin promoter-driven GFP, primary screen, imaging, TRM-6 cells (human fetal islet line), eGFP reporter, cell count | reporter expression induced with tamoxifen | inhibition, % at 2 µM | hit rate 0.9% among 130,000 | AID 1273, 2008;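 active means inhibition above the mean plus 3 SD, with well images judged a real hit on visual review, cut at about 60% in these data, passing the limit was not always enough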
RGS16-Gao HTS: modulators of RGS16 binding to Galphao, primary screen, biochemical, human proteins, multiplexed bead flow cytometry; AID 1441, 2008; binding response (% of control), % at 10 µM; Regulator of G-protein signaling 16 (Homo sapiens) + Guanine nucleotide-binding protein …; bead-based flow cytometry RGS16-Galphao binding, fluorescence; actives lie on both sides; hit rate 0.38% among 220,000;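 active means below 25% or above 175%, edge rows of some plates excepted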;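 further: Galphao activated by GDP with aluminum fluoride before binding; 100% = wells without compound and 0% = beads without RGS; some results beyond the cut were filed as inactive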
Target sequence (O15492 whole entry, looked up): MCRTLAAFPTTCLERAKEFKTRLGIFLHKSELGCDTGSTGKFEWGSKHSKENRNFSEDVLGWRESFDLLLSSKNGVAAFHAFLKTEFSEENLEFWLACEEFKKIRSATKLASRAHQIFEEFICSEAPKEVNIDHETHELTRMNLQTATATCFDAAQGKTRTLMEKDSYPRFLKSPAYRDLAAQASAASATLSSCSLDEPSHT
Target sequence (P09471 whole entry, looked up): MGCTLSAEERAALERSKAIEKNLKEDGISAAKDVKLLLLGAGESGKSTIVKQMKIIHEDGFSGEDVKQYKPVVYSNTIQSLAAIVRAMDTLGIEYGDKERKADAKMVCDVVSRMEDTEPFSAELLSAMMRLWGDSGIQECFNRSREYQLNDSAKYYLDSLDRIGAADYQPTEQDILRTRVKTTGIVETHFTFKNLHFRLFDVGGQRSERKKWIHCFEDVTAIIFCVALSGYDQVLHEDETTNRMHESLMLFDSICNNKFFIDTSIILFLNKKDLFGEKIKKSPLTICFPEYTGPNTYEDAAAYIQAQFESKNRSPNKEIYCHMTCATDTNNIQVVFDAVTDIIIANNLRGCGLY
Insulin prom inh cell count: further read-out of Insulin prom inh, marked with its call; normalized cell count, %; measured here: cell count, toxicity; reference of the scale not given here;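 cells exposed to compound for 48 h; stained nuclei by imaging scaled within each plate; lower means fewer cells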
HSV augment primary fold: recorded beside HSV augment, whose call it bears; fold increase; compound at 10 µM; measured here: primary screen fold increase 10 uM; tested in PC3 cells;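 GFP signal in the first replicate; 1 = infected wells without compound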
Starred values were filed as active, the others as inactive; i = inactive; x = no result given.

Fields: GALR2 ag, HSV augment, HSV augment primary fold, PKD1 kinase inh, Insulin prom inh, Insulin prom inh cell count, RGS16-Gao HTS
- Cc1cc(C)n(C(=O)CCC(=O)Nc2ccc(C)c(C)c2)n1
 : 0.1, i, 0.99, -4.1, -7.0, 168.2, 100.0
- CC(C)NS(=O)(=O)c1cccc2nsnc12
 : -2.2, i, 0.99, -4.6, -6.5, 105.8, 116.2
- Cc1nc(-c2ccc(Br)cc2)ccc1C(=O)O
 : -0.7, i, 1.04, -6.5, 16.7, 97.3, 67.6
- Cc1[nH]c2ccccc2c1C(c1ccncc1)N1CCN(c2ccccc2F)CC1 (configuration not stated)
 : -2.1, i, 0.77, -2.0, -19.2, 64.3, 101.3
- COC(=O)c1cc(Br)ccc1NC(=O)Nc1ccc(C)cc1
 : -0.3, i, 0.987, -0.6, -13.6, 23.2, x
- CCOC(=O)C1=C(Nc2ccccc2)CC(C)(O)C(C(=O)OCC)C1c1ccc(Br)cc1 (configuration not stated)
 : -2.5, i, 1.04, -1.0, -61.1, 30.3, 105.2
- CC1(C)Nc2ccccc2N(Cc2ccc([N+](=O)[O-])cc2)C1=O
 : x, i, 0.8, 3.7, x, x, 100.5
- COc1ccccc1/C=C/C(=O)NC(=S)NCC1CCCO1 (configuration not stated)
 : x, i, 0.79, -5.5, -38.9, 40.0, 102.7
- Oc1c(N=NC(=S)Nc2ccccc2F)c2ccccc2n1Cc1ccccc1
 : x, i, 0.86, -5.8, x, x, 101.0
- CC(=O)c1c(C)[nH]c(C(=O)NCc2ccccc2)c1C
 : -2.4, i, 1.06, -0.5, -79.4, 113.0, 103.1
- O=C1C(Cl)=C(N2CCCCCC2)C(=O)N1c1ccccc1
 : -2.6, i, 0.94, -0.1, -45.5, 97.2, 100.5
- CC1=C(C(=O)OC2CCCC2)C(c2coc3ccccc3c2=O)C2=C(CC(C)(C)CC2=O)N1 (configuration not stated)
 : x, i, 0.85, x, x, x, 99.3
- O=C(CSc1ccsc1[N+](=O)[O-])Nc1cc(F)ccc1F
 : x, i, 1.03, -15.1, x, x, 95.8
- Cc1occc1-c1nnc(SCC(=O)N2CCN(c3ccccc3F)CC2)n1C
 : -0.7, i, 1.09, -4.4, -27.8, 107.5, 101.7
- CCc1nnc(NS(=O)(=O)c2ccc(NC(=S)NC(=O)c3cccs3)cc2)s1
 : x, i, 1, -0.1, x, x, 93.8
- CC(C)c1ccc(OCC(=O)Nc2ccc(OC(F)(F)F)cc2)cc1
 : 0.1, i, 1.04, 10.2, x, x, 102.8
- CNS(=O)(=O)c1cc(O)c2c(S(=O)(=O)NC)cccc2c1
 : -0.1, i, 0.9, -2.4, 11.5, 103.9, 95.3
- CC1(C)CC(n2c(NCCO)nc3c(c2=O)C2(CCCC2)Cc2ccccc2-3)CCO1 (configuration not stated)
 : -1.2, i, 0.94, 0.1, 8.7, 95.1, 99.0
- Nc1ccc(C(=O)Nc2ccc(NC(=O)c3ccco3)c(O)c2)cc1
 : x, i, 0.95, x, x, x, 100.1
- Cc1cc(C(=O)COc2cc(F)ccc2[N+](=O)[O-])c(C)n1C1CC1
 : x, i, 1, -0.2, 0.0, 103.8, 98.2
- COc1ccccc1NC(=O)c1[nH]c(C)c(C(C)=O)c1C
 : -1.8, i, 0.87, 5.9, x, x, 100.9
- Cc1cccc(-n2cc[nH]c2=S)c1
 : -1.6, i, 1.07, -2.3, 25.9, 79.4, 111.5
- Cc1ccc(C)c(NC(=O)CCC(=O)NNC(=S)Nc2ccccc2)c1
 : x, i, 0.96, -4.4, x, x, 106.3
- COc1ccccc1-n1cc(CN2CCN(C3CCCC3)C(CCO)C2)cn1 (configuration not stated)
 : x, i, 1.04, 0.3, x, x, 110.4
- CN(NC(=O)c1ccc(Cl)cc1)c1nc(-c2ccccc2)nnc1C(F)(F)F
 : -0.3, x, x, -1.2, -52.9, 148.5, 97.4
- NC(=O)c1ccsc1NC(=O)CSc1ccccc1F
 : -2.9, i, 0.86, -0.8, 19.4, 96.3, 91.5
- COc1ccc(O)c(C(c2c(C)[nH][nH]c2=O)c2c(C)[nH][nH]c2=O)c1
 : x, i, 0.89, -1.2, x, x, 105.2
- CCOCCCNC(=S)Nc1ccc(Br)cc1Cl
 : x, i, 0.97, x, x, x, 108.6
- Cc1nc(NCC2CCCO2)nc2c1C(=O)CC(C)C2 (configuration not stated)
 : -5.7, i, 0.93, -2.2, -9.1, 122.1, 97.3
- Cc1nc(SCc2ccc(F)cc2)c([N+](=O)[O-])[nH]1
 : -1.0, i, 0.96, -7.5, -9.1, 97.3, 107.8

As a working copy, 10 of the compounds above.
Fields: GALR2 ag, HSV augment, HSV augment primary fold, PKD1 kinase inh, Insulin prom inh, Insulin prom inh cell count, RGS16-Gao HTS
- COc1ccccc1NC(=O)c1[nH]c(C)c(C(C)=O)c1C
 : -1.8, i, 0.87, 5.9, x, x, 100.9
- Cc1cccc(-n2cc[nH]c2=S)c1
 : -1.6, i, 1.07, -2.3, 25.9, 79.4, 111.5
- Cc1ccc(C)c(NC(=O)CCC(=O)NNC(=S)Nc2ccccc2)c1
 : x, i, 0.96, -4.4, x, x, 106.3
- COc1ccccc1-n1cc(CN2CCN(C3CCCC3)C(CCO)C2)cn1 (configuration not stated)
 : x, i, 1.04, 0.3, x, x, 110.4
- CN(NC(=O)c1ccc(Cl)cc1)c1nc(-c2ccccc2)nnc1C(F)(F)F
 : -0.3, x, x, -1.2, -52.9, 148.5, 97.4
- NC(=O)c1ccsc1NC(=O)CSc1ccccc1F
 : -2.9, i, 0.86, -0.8, 19.4, 96.3, 91.5
- COc1ccc(O)c(C(c2c(C)[nH][nH]c2=O)c2c(C)[nH][nH]c2=O)c1
 : x, i, 0.89, -1.2, x, x, 105.2
- CCOCCCNC(=S)Nc1ccc(Br)cc1Cl
 : x, i, 0.97, x, x, x, 108.6
- Cc1nc(NCC2CCCO2)nc2c1C(=O)CC(C)C2 (configuration not stated)
 : -5.7, i, 0.93, -2.2, -9.1, 122.1, 97.3
- Cc1nc(SCc2ccc(F)cc2)c([N+](=O)[O-])[nH]1
 : -1.0, i, 0.96, -7.5, -9.1, 97.3, 107.8

More entries:
Fields: GALR2 ag, HSV augment, HSV augment primary fold, PKD1 kinase inh, Insulin prom inh, Insulin prom inh cell count, RGS16-Gao HTS
- Nn1cc(-c2ccccc2)nc1SCC(=O)N1CCN(S(=O)(=O)c2ccc(Cl)cc2)CC1
 : -0.8, i, 0.86, -2.2, -48.1, 98.3, 101.5
- O=C(CCN1CCCCC1)N=Nc1c(O)[nH]c2ccccc12
 : x, i, 0.93, 1.4, x, x, 89.4
- O=c1c(-c2cc3ccccc3o2)[n+]([O-])c2ccccc2n1OCc1ccccn1
 : -0.2, i, 1.1, -7.0, 5.4, 55.7, 112.5
- CCC(=O)Nc1ccc(S(=O)(=O)NCCc2ccccc2)cc1
 : 0.4, i, 1.01, 0.8, -33.3, 91.8, 100.8
- CC1CCCCN1S(=O)(=O)c1ccc(C(=O)Nc2nnc(-c3cccs3)o2)cc1 (configuration not stated)
 : 0.5, i, 0.81, 2.6, x, x, 98.9
- Clc1ccc(CSc2nnc3ccccn23)c(Cl)c1
 : -0.9, i, 1.17, -7.4, x, x, 86.8
- CC(=O)N/C(=C\c1cccc([N+](=O)[O-])c1)C(=O)NC1CCCCC1
 : -0.5, i, 0.92, -9.2, 21.6, 160.0, 102.2
- CCOC(=O)c1sc(NC(=O)CSc2nnnn2-c2ccccc2)nc1C
 : -0.7, i, 1.1, -10.8, x, x, 99.0
- CCC(C)(C)c1ccc(Oc2ccc(NC(=O)COC(=O)C3=COCCO3)cc2)cc1
 : -0.6, i, 0.92, -4.4, 20.0, 99.0, -56.7
- O=C(Nc1ccc(Cl)cc1Cl)C1CCC(=O)N1Cc1ccccc1Cl (configuration not stated)
 : 0.1, i, 0.98, -10.9, -15.2, 69.8, 101.5
- CCOCCCn1c(=NC(C)=O)c(C#N)cc2c(=O)n3cccc(C)c3nc21
 : x, i, 1.07, x, x, x, 96.5
- COc1ccc(C(=O)c2ccc(Cl)c([N+](=O)[O-])c2)cc1
 : 3.0, i, 0.65, -10.2, -7.4, 18.1, 106.7
- O=C(NCc1cccnc1)c1nnc(Cc2ccc(F)cc2)o1
 : x, x, x, -3.5, x, x, 102.3
- S=c1[nH]nc(C2(c3ccccc3)CCCC2)o1
 : x, i, 0.85, x, x, x, 101.9
- O=C(CN1CCN(c2ccc(F)cc2)CC1)N1CCOCC1
 : -0.6, i, 0.99, -6.5, -8.3, 155.9, 90.7
- CSc1ccc(Cl)c(C(=O)OCC(=O)NCc2ccco2)c1
 : -1.4, i, 0.92, -3.4, 64.3, 94.1, 97.4
- COc1cc(NC(=O)C/C(C)=N/NC(=O)C(OC)c2ccccc2)c(OC)cc1Cl (configuration not stated)
 : -1.2, i, 0.9, -8.0, -22.2, 108.9, 116.4
- CC1=C(C(=O)OC2CCCCCC2)C(c2ccc(C)o2)C2=C(CCCC2=O)N1 (configuration not stated)
 : -0.1, x, x, -8.0, 29.6, 132.9, 96.7
- COc1cc(OC)c(C2=NOC(C(=O)N3CCCc4ccccc43)C2)cc1Cl (configuration not stated)
 : -0.8, i, 0.85, -3.6, 33.3, 179.4, 109.7
- CC1(C)C2CCC(C2)C1(C)NC(=O)CNCc1cccs1 (configuration not stated)
 : x, i, 1.1, -4.1, 18.2, 91.4, 111.5
- O=C(CSCc1c(Cl)cccc1Cl)NCC1CCCO1 (configuration not stated)
 : -0.6, i, 0.89, -5.1, -48.6, 33.0, 98.1
- Cc1ccc(Cl)c(Nc2ccccc2C(=O)O)c1Cl
 : -0.5, i, 1.03, -15.9, 18.2, 90.2, 88.1
- CCN1CCN(Cc2ccc(NC(=O)c3cc(NC(=O)c4cnnc5ccccc45)cc(OC)c3)cc2C(F)(F)F)CC1
 : x, i, 0.64, x, x, x, 97.8
- CCOCCCNC(=O)Cn1cc2c(n1)CCCC2
 : 0.0, i, 0.99, 0.3, x, x, 97.2
- COc1cc(/C=C(\C#N)c2ccccn2)ccc1OCc1ccc(Cl)cc1
 : 0.8, i, 1.26, 0.0, x, x, 100.4
- CCN(CC)c1nc(N)nc(NS(=O)(=O)c2ccc(Cl)cc2)n1
 : -0.8, i, 0.94, -11.7, x, x, 84.5
- Cc1ccccc1CN1C(=O)CS/C1=N/N=C/c1ccco1
 : x, i, 1.21, x, x, x, 102.7
- CNc1nc(=S)[nH]c2ccccc12
 : x, i, 0.97, x, x, x, 96.9
- CC(=O)Oc1cc2c(C(=O)NCCCN3CCOCC3)c(C)oc2c2ccccc12
 : -2.0, i, 1.06, -10.8, x, x, 104.7
- CCc1nn(-c2ccccc2)c(N)c1C#N
 : 0.1, i, 1.05, -16.1, 60.0*, 162.0*, 106.7

The results go on:
mol | GALR2 ag | HSV augment | HSV augment primary fold | PKD1 kinase inh | Insulin prom inh | Insulin prom inh cell count | RGS16-Gao HTS
Cc1ccc(NC(=O)C(C)N2C(=O)c3ccccc3C2=O)cc1 (configuration not stated) | -1.7 | i | 0.98 | -0.3 | -100.0 | 77.9 | 103.4
CSc1nnc2n(CCc3ccccc3)c(=O)c3c4c(sc3n12)CCCC4 | -0.7 | x | x | -4.3 | -25.0 | 82.9 | x
NC(=O)CN(c1ccccc1)C1SC(=O)N(Cc2ccccc2)C1=O (configuration not stated) | -2.0 | i | 1 | 13.4 | -12.1 | 79.6 | 97.8
Cc1csc(=N)n1CC(=O)N1CCc2ccccc21 | -1.8 | i | 1.06 | 5.5 | x | x | 100.6
O=C(O)CCC(=O)Nc1ccc(S(=O)(=O)Nc2nccs2)cc1 | -0.8 | i | 0.94 | -3.3 | -4.5 | 161.2 | 105.7
CCc1cccc(Nc2cc(C)nc3ncnn23)c1 | -0.4 | x | x | -5.3 | 45.0 | 121.9 | 97.0
Oc1ccccc1-c1nc2ccccc2nc1-c1ccccc1 | x | i | 1.12 | x | x | x | 91.1
O=C(COc1ccccc1)Nc1ncccn1 | -0.7 | i | 0.96 | -6.9 | 43.3 | 102.0 | 104.3
O=[N+]([O-])c1ccc(Nc2ccc3ccccc3c2)nc1 | -1.0 | i | 1.07 | 6.2 | 20.8 | 113.2 | -140.0
N=c1ccn(Cc2cccc(F)c2)cc1 | x | i | 0.91 | x | x | x | 103.8
Nc1ncc(Br)cc1Br | 0.1 | i | 1 | 6.6 | x | x | 106.7
N#Cc1c(Nc2ccccc2Cl)s[nH]c1=O | x | i | 0.97 | x | x | x | 97.6
